# TRPML1 ag: qHTS for Agonists of the Human Mucolipin Transient Receptor Potential 1 (TRPML1); Mucolipin-1 (Homo sapiens), Q9GZU1; TRPML1-expressing cells, Ca2+ dye fluorescence, FDSS; host cell line not named in the record; reference of the full effect not given here; activation, % (test concentration not listed); hit rate 0.12% among 410,000; AID 624414, 2012; in the data active = activation above about 50%; inconclusive = about 30% to 50%; inactive = below about 30%; note: 0% is about no effect; the text of the record puts the active cut at 80%
# Target sequence (Q9GZU1 whole entry, looked up): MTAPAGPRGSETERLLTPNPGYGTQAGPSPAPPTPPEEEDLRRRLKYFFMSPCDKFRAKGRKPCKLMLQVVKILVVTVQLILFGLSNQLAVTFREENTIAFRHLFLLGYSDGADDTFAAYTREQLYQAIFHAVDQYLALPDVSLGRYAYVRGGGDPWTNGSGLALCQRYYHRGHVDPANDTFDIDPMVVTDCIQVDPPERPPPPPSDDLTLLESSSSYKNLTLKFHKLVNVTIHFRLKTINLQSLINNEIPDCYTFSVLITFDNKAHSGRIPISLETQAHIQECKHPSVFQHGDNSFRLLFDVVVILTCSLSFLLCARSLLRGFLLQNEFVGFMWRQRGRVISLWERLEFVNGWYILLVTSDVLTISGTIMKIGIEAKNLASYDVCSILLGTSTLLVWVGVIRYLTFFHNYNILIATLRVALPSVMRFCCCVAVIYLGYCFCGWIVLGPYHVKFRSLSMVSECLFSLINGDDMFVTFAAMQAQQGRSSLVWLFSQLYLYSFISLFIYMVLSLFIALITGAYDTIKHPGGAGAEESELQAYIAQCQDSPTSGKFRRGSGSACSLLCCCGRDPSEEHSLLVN
#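 Calcium fluorescence on an FDSS kinetic reader gave the read-out. Tet-induced TRPML1-DL cells were plated overnight, dye-loaded (Ca8 with quencher, 45-90 min, room temperature, dark), then read 110 s after compound addition, and again 110 s after 4uM final 54-4 (EC80).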
# Menin MLL FP FL: qHTS Assay for Inhibitors Targeting the Menin-MLL Interaction in MLL Related Leukemias: Competition With Fluorescein Labeled MLL-derived Peptide. Fluorescence polarization, fluorescein-MLL peptide displacement from menin. FP activity change, % at 61.4 µM. 290,000 tested, under 10 active; inconclusive = falling polarisation curve, or a change in total fluorescence; inactive = total fluorescence flat and polarisation flat or rising; no compound was filed as active; the % refers to the polarisation; negative = inhibition;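 note: % of control where 0% means no effect; inhibitors lower the polarisation; unlabelled MLL peptide was the positive control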
# TRPV1 PAM: HTS Assay for Compounds that Act as Potentiators of the Vanilloid Receptor 1; hit rate 0.02% among 320,000; Transient receptor potential cation channel subfamily V member 1 (Homo sapiens), Q8NER1; TRPV1-expressing cells, Fluo-8 calcium influx, capsaicin EC20 potentiation; host cell line not named in the record; control for the full effect not named in the record; AID 540277, 2011; potentiation, % at 8.33 µM; active means potentiation above 80%; inconclusive means 30% to 80%; inactive means below 30%; note: 0% is about no effect
#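 TRPV1-expressing cells were cultured overnight at 35.5C and loaded with Fluo-8 calcium dye for 40 to 90 min at room temperature. After a 10 s baseline, compound was added and calcium influx was read kinetically for 3 min (ex 480/em 520 nm).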
# PINK1 expr mod: A Quantitative High throughput Screen to Identify Chemical Modulators of PINK1 Expression. AID 624263, 2012. PINK1 immunofluorescence, high-content cytometry, 24 h. hit rate 0.2% among 410,000. Potency, µM (titrated, usually from 76.6 µM), for the others: at the highest dose activation (PINK1 increase), hits mostly activators; active = well fitted activation curve with a large enough effect; inconclusive = small, poorly fitted or top-dose-only effect; inactive = flat fitted curve, though single readings scatter; cell line not stated here;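 note: potency is the fitted concentration of half-maximal effect; % of control where 0% means no effect; nearly all actives have a fitted effect of over 65% in size; a mitochondrial uncoupler was the plate control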
#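 Decision-based qHTS: stable cells, 24 h exposure to five compound concentrations, CCCP as control. Fixed cells stained for PINK1 plus nuclear, mitochondrial and cell markers, cytometer read.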
# ClpP mod: qHTS Assay for Activators of ClpP. purified B. subtilis ClpP, FRET peptide cleavage, 20 min. Potency, µM (series often up to 57.5 µM), for inactives: top-dose activity change, negative = active. hit rate 1.9% among 340,000. AID 651965, 2013; active = well fitted falling curve with a large enough effect; inconclusive = small, poorly fitted or top-dose-only effect; inactive = no such curve, though single readings can be large or run the other way; note: potency is the fitted concentration of half-maximal effect; the source files actives as falling curves though it sought activators and does not explain the sign; nearly all actives have a fitted effect of over 65% in size; many hits overshoot -100%
# Target sequence (P80244 whole entry, looked up): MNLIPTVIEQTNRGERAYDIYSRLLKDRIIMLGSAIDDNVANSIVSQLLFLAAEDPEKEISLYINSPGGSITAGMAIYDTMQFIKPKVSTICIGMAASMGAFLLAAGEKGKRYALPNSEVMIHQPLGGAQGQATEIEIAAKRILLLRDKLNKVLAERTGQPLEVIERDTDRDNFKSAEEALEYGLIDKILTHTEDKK
#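 FRET quenching reversal measured ClpP activation: 10 microg/mL B. subtilis ClpP at pH 8 with the FRET-FV decapeptide, read at 430 nm after 320 nm excitation. The 20-min minus 0-min signal was scaled between DMSO/no-enzyme wells and ADEP (5.8 microM final).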
# TRPML1 inh: qHTS for Inhibitors of the Human Mucolipin Transient Receptor Potential 1 (TRPML1). hit rate 0.02% among 390,000. TRPML1-inducible cells, Ca2+ dye fluorescence, FDSS; active compounds read low; inhibition of EC80 agonist-evoked calcium signal. activity change, negative = inhibition, % (concentration not given with the values). AID 624415, 2012; in the data active means activity change below about -50%; inconclusive means about -30% to -50%; inactive means above about -30%;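 note: stimulus is agonist 54-4 at its EC80 concentration; % is set by controls: 0 for no effect and ±100 for the full control effect; the text of the record puts the active cut at -80%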
#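 Calcium fluorescence in TRPML1-DL cells induced overnight with Tet: a 110 s read after compound pin addition, then a 110 s antagonist read after challenge with 54-4 at 4 uM final (EC80).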
# Sfp PPTase inh: qHTS Assay for Inhibitors of Bacillus subtilis Sfp phosphopantetheinyl transferase (PPTase); Potency, µM, without a hit: max response, negative = inhibition, hits mostly inhibitors; AID 1490, 2009; 4'-phosphopantetheinyl transferase ffp (Bacillus subtilis), Q9F4F7; Biochemical Sfp PPTase activity, qHTS; hit rate 3.5% among 310,000; active = well fitted inhibition curve with a large enough effect; inconclusive = small, poorly fitted or top-dose-only effect, or another doubt; inactive = no such curve, though single readings can be large or run the other way;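 note: the enzyme is Sfp with the accession as filed and its product quenches rhodamine fluorescence; potency is the fitted concentration of half-maximal effect; 0% = enzyme reaction without inhibitor and -100% = no enzyme wells; top concentration of the series not given in the record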
#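 After 15 min at room temperature with compound, 15 nM Sfp received 5 uM rhodamine-CoA plus 12.5 uM BHQ-2-ybbR (50 mM Hepes pH 7.6, 10 mM MgCl2). Rate came from the fluorescence difference over 30 min, ex 525/em 598 nm.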
# * = called active by the depositor; ? = inconclusive; . = no result given; [ ] = remark or other dose.
# Screens in order – TRPML1 ag, Menin MLL FP FL, TRPV1 PAM, PINK1 expr mod, ClpP mod, TRPML1 inh, Sfp PPTase inh
COc1ccc(C(=O)CC(=O)C(=O)Nc2ccc(C)c(Cl)c2)cc1
 : ., 2.3, -19, -0.5%, -1.0%, ., 3%
Nc1cc(C(=O)OCC(=O)Nc2cccc(S(=O)(=O)N3CCOCC3)c2)ccc1Cl
 : -0.5, ., ., 2.8%, -27%, 2, .
Fc1ccc(CNC(=S)NC2CCCC2)cc1
 : 0.4, 1.7, -7, -1.1%, ., -10, 26%
CCOc1ccc(S(=O)(=O)N(CC(=O)Nc2cccnc2)c2ccc(F)cc2)cc1
 : 1.0, 5.6, 12, 3.6%, 0.9%, -18, 4%
O=C(COc1ccc2ccccc2c1)Nc1ccc(Cc2ccncc2)cc1
 : 2.5, 1.5, -1, -0.4%[38.3 µM], 0.3%, 12, -3%
Cc1sc2ncnc(SCC(=O)NCC(C)C)c2c1C
 : 1.2, -1.8, 22, -1.4%, -23%, 2, 10%
Cc1cc(C)cc(NC(=O)C(OC(=O)Cn2cnc3c2c(=O)n(C)c(=O)n3C)c2ccccc2)c1 (configuration not stated)
 : -0.3, ., 14, -1.6%, 1.2%, -9, .
CCN(CC)CCNC(=S)Nc1ccc(Cl)cc1
 : 0.1, -1.6, 5, -1.1%, -0.3%, 1, 3%
COC(=O)c1ccc(NC(=O)COC(=O)CSc2nc(C)cc(C)n2)cc1
 : 0.4, 0.5, -7, ., -0.9%, -5, 8%
CCOc1cccc2cc(C(=O)NCCC3=CCCCC3)c(=O)oc12
 : 1.3, -1.6, -10, 3.9%, ., 19, -3%
COc1ccc(C2NC(=O)c3ccccc3N2)c(OC)c1OC (configuration not stated)
 : -0.2, ., ., 8.1%, 4.5%, 11, .
O=C(Nc1ccc(N2CCOCC2)cc1)c1ccncc1
 : 0.3, 1.4, 20, 2.9%, 0.6%, 0, 2%
CCOC(=O)CC(C)(C)/C(C)=N/Nc1ccc([N+](=O)[O-])cc1[N+](=O)[O-]
 : 1.4, -3.0, -23, 0.7%, ., 22, 1%
CC1=NNC(=O)C(CC(=O)Nc2ccc(Cl)c(Cl)c2)C1 (configuration not stated)
 : 0.5, 3.6, 12, 0.2%, 0.9%, -1, 5%
COc1cc(CN2CCNC(=O)C2CC(=O)NCCC2=CCCCC2)cc(OC)c1 (configuration not stated)
 : -0.1, 3.0, 8, -1.8%, ., 9, 4%
COc1ccc(C(=O)NC2CCc3ccccc32)cc1OC1CCN(C(C)C)CC1 (configuration not stated)
 : 0.0, 2.8, -5, 0.6%, -1.2%, 8, 13%
O=C(Nc1ccccc1F)c1ccc(OCc2ccccc2)cc1
 : 2.8, 2.8, -17, 9.5%, -1.5%, 12, 13%
CC1CCCC(NC(=O)CSC2CCCCC2)C1C (configuration not stated)
 : -0.9, 0.3, -14, 1.1%, -0.4%, -5, 19%
CC1CCCC(NC(=O)CSc2ccc(F)cc2)C1C (configuration not stated)
 : 0.6, -1.6, 0, -0.9%, 2.7%, -4, 8%
CCOc1ccc(NC(=O)N2CC=C(c3c[nH]c4ccccc34)CC2)cc1
 : 0.9, ., ., 9.7%, -19%, -8, .
CCCCNC(=O)CSc1nc2cc3c(cc2c(=O)n1CCCCCC(=O)NCc1ccc2c(c1)OCO2)OCO3
 : 1.5, ., ., 0.4%, -3.0%, 23, .
NNC(=O)CCCNc1ncc(C(F)(F)F)cc1Cl
 : -0.3, 0.2, -17, -0.8%, ., -11, 19%
CCc1cc(OCCN(C)C)ccc1Cl
 : 0.1, 3.0, 9, 1.9%, ., 19, 16µM*
Cc1cc(OCn2ccc(C(=O)O)n2)ccc1Cl
 : 1.7, -0.6, -6, 0.2%, 3.1%, -8, 12%
O=C(Cc1cccc2ccccc12)NN1C(=O)C2C(C1=O)C1C=CC2C12CC2 (configuration not stated)
 : 0.0, -1.3, 4, -0.5%, 1.1%, 6, 20%
Cc1ccc(NC(=S)NC2CC3CCCC(C2)N3Cc2ccco2)cc1 (configuration not stated)
 : 0.2, 5.0, 20, 3.6%, -1.4%, -18, -12%
Cc1ccc(C)c(N2CCN(C(=O)C3CCC(CNS(=O)(=O)c4ccc(Br)s4)CC3)CC2)c1 (configuration not stated)
 : 1.6, ., ., 1.2%, -1.9%, 11, .
CC(=O)c1ccc(NC(=O)C2CCCO2)cc1 (configuration not stated)
 : 0.4, 1.1, -1, 0.3%, 0.7%, 2, 10%
COc1ccc(CC(=O)NCCCCc2ccccc2)cc1OC
 : -0.1, ., ., 1.9%, 0.5%, 14, .
Cc1coc2cc3oc(=O)c(CC(=O)N4C[C@H]5C[C@@H](C4)c4cccc(=O)n4C5)c(C)c3cc12
 : ., 2.7, 7, 3.3%, 4.0%, ., 16%

# The last three records of the section above open the next one:
# Screens in order – TRPML1 ag, Menin MLL FP FL, TRPV1 PAM, PINK1 expr mod, ClpP mod, TRPML1 inh, Sfp PPTase inh
CC(=O)c1ccc(NC(=O)C2CCCO2)cc1 (configuration not stated)
 : 0.4, 1.1, -1, 0.3%, 0.7%, 2, 10%
COc1ccc(CC(=O)NCCCCc2ccccc2)cc1OC
 : -0.1, ., ., 1.9%, 0.5%, 14, .
Cc1coc2cc3oc(=O)c(CC(=O)N4C[C@H]5C[C@@H](C4)c4cccc(=O)n4C5)c(C)c3cc12
 : ., 2.7, 7, 3.3%, 4.0%, ., 16%
Cc1cccc(C)c1N1CCN(C(c2ccnc3ccccc23)c2nnnn2-c2ccc3c(c2)OCCO3)CC1 (configuration not stated)
 : -0.4, ., ., 3.1%, -1.9%, ., .
COc1ccc(NS(=O)(=O)c2cc(NS(=O)(=O)c3cc(C(=O)O)ccc3OC)ccc2C)cc1
 : 0.4, ., ., 4.9%, 0.1%, 16, .
COc1ccccc1C1=Nc2cccc3cccc(c23)N1
 : 0.2, 1.9, 3, 5.6%[38.3 µM], -2.6%, -4, -17%
O=C(O)c1cccc(NC(=O)c2ccc3c(c2)C(=O)N(C2CCCCC2)C3=O)c1
 : -0.2, -0.2, -28, 1.7%, 1.0%, -14, 12%
Cc1ccc(C)c(SCC(=O)NCC(c2ccco2)N2CCCCC2)c1 (configuration not stated)
 : -0.1, ., 15, 4.5%, 1.4%, 25, .
Cc1ccc(S(=O)(=O)N2CCN(C(=O)C3CC(=O)N(c4ccc5c(c4)OCCO5)C3)CC2)cc1 (configuration not stated)
 : -0.1, ., 12, -1.2%, -1.5%, -2, .
COc1cc(/C=N\NC(=O)c2ccc(-c3ccccc3)cc2)cc(OC)c1O
 : 1.3, 2.6, -7, 5.9%, -6.7%, 7, 4%
CCCOc1ccc(CC(=O)NCC2(c3ccccc3)CCOCC2)cc1OC
 : 1.8, -1.9, -21, -3.3%, -0.8%, -17, 15%
CCc1cccc(C)c1NC(=S)N(CCN(C)C)Cc1cccs1
 : 1.9, -1.4, -2, 1.4%, ., 3, 14%
COc1cccc(CNC(=O)CN(c2cc(C)cc(C)c2)S(=O)(=O)c2c(C)noc2C)c1
 : 2.3, -1.1, ., 2.9%, 1.6%, -11, 4%
Cc1ccccc1C(=O)Nc1scc(-c2ccc(Br)cc2)c1C(=O)O
 : -0.6, ., ., 2.2%, -0.2%, 1, .
Cc1ncc([N+](=O)[O-])n1CC(O)CCl (configuration not stated)
 : -0.3, -0.5, -4, 1.2%, -0.5%, 2, 12%
Cc1ccccc1-c1nc2scc(CCNC(=O)C(=O)Nc3ccc(F)cc3F)n2n1
 : 1.5, ., ., 2.2%, 0.6%, -17, .
CCN(CC)S(=O)(=O)c1ccc2c(c1)c(=O)c(C(=O)NCc1ccccc1Cl)cn2C
 : -1.1, ., ., 1.3%, -3.1%, 11, .
Cc1ccc(-c2noc(CNC(=O)c3ccc(C(C)(C)C)cc3)n2)cc1
 : 0.4, ., ., 0.9%, -5.4%, -13, .
CCOc1ccc(N2CC(C(=O)Nc3ccccc3OC)CC2=O)cc1 (configuration not stated)
 : 0.9, 4.2, -6, 0.1%, -17%, -8, 13%
CCOc1ccc(N=c2scc(-c3ccccc3)n2CCO)cc1
 : -0.7, 0.7, ?, 5.1%[38.3 µM], -0.4%, 8, 6%
COc1ccccc1OCCNC(=O)c1ccc(C)o1
 : 2.5, ., -2, -1.0%, ., -6, .
Cc1ccc(C(=O)NCC(=O)Nc2ccc(F)c(F)c2F)cc1
 : 0.5, -3.2, 2, 3.8%, -0.6%, 0, 11%
CCCOC1CCCN(C(=O)c2cc(Cl)c(Cl)cc2C(=O)O)C1 (configuration not stated)
 : -0.8, -0.1, 8, -0.5%, 1.6%, 14, 15%
CN(c1ccccc1)S(=O)(=O)c1cccc(NC(=O)Cn2cnc3c2c(=O)n(C)c(=O)n3C)c1
 : -0.1, 1.5, -1, -0.1%, -3.0%, -1, 12%
CCCn1c(SCC(=O)Nc2ccccc2C(=O)NC2CC2)n[nH]c1=O
 : -0.7, ., 16, 0.5%, 0.2%, 2, .
CC(C)N=C(NC#N)SCc1ccc(F)cc1
 : -0.2, 2.2, -1, -3.0%[38.3 µM], -0.4%, 31, 5%
Cc1ccc(S(=O)(=O)N2CCN(C(=O)COC(=O)c3ccc(O)cc3)CC2)c(C)c1
 : 1.0, ., 7, -4.0%, 1.4%, 20, .
CC(C)(C)c1ccccc1OCCCCCNCCO
 : 1.8, -2.0, -5, -1.1%[38.3 µM], 1.1%, -9, -29%
Cc1ccc(S(=O)(=O)N2CCOCC2)cc1C(=O)Nc1nc(-c2cccnc2)cs1
 : 0.1, -0.6, 5, -0.3%[38.3 µM], -0.7%, 12, 3%
CC(C)CC(C(=O)Nc1cccc(O)c1)N1C(=O)c2ccccc2C1=O (configuration not stated)
 : -0.3, -6.4, -17, 0.8%, -0.8%, -1, 31%[activator]
COc1cccc(C(=O)N2CCC[C@H]2C(=O)N2CCC[C@H]2C(=O)NCc2ccc(F)cc2F)c1
 : -0.9, ., ., -0.4%, -2.5%, ., .
COC(=O)c1ccccc1NC(=O)CN1C(=O)c2ccccc2S1(=O)=O
 : -0.5, -1.7, 10, -0.1%[38.3 µM], 3.5%, 3, 11%
